# CBX7 inh: inhibitors of human CBX7 binding to H3K27me3 peptide | O95931 | AlphaScreen His6-CBX7 / biotin-H3K27me3 peptide binding; hits give low values | normalised signal (fraction of DMSO) (no concentration beside the values) | 1.1% of 66,000 active | AID 1224903; in the data active = normalised signal below about 0.5;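 note: 100 nL library stock added to about 20 µL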
# Target sequence (O95931 whole entry, looked up): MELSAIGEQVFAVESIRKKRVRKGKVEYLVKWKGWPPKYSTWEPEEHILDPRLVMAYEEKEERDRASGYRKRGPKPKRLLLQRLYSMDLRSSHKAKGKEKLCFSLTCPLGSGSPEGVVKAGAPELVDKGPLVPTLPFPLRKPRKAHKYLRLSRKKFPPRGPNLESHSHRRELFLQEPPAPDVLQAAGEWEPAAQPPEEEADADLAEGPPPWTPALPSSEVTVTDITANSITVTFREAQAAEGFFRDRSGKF
# CBX7 inh z-score: further read-out of CBX7 inh, marked with its call; z-score; measured here: z-score of CBX7 signal; some inactives read as strong as hits; reference of the scale not given here;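 same signal on another scale; lower means less binding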
# Starred values were filed as active, the others as inactive.
# Values run as follows: CBX7 inh	CBX7 inh z-score
COc1ccc(CCNc2oc(COc3ccccc3)nc2C#N)cc1
→ 0.918	-1.04
CCc1nnc(NC(=O)c2ccc(S(=O)(=O)N(CCOC)CCOC)cc2)o1
→ 0.504	-11.2
CC(C)c1ccc(N(C)C(=O)Cc2c(C(=O)O)[nH]c3ccccc23)cc1
→ 0.998	-0.0469
CCN1CCN(C(=O)C(NS(=O)(=O)c2ccc3nc(C)sc3c2)C(C)C)CC1 (centres undefined)
→ 1.01	0.173
COc1ccc(S(=O)(=O)N2CC=C(C(=O)NC3CCCC3)CC2)cc1
→ 1.04	1.73
Cc1sc2ncnc(Nc3cccc(C(F)(F)F)c3)c2c1C
→ 1.07	2.16
c1ccc(-c2nc(-c3ccc4c(c3)OCO4)[nH]c2-c2cccc3ccccc23)cc1
→ 0.786	-8.62
O=C1CN(Cc2ccccc2)C(c2ccccc2Cl)c2cc(Br)ccc2N1 (centres undefined)
→ 0.843	-7.09
CCCCNC(=O)c1c[nH]c2ccc(S(=O)(=O)Nc3ccccc3C)cc2c1=O
→ 0.801	-3.75
Cc1cccc(OCC(=O)Nc2ncc(Cc3ccccc3Cl)s2)c1
→ 0.989	-0.0747
CCOCCCNC(=O)C(NC(=O)c1cnccn1)c1ccc(C)cc1 (centres undefined)
→ 1.04	1.85
Cc1ccc2cc(CCNC(=O)C3(c4ccc(Cl)cc4)CCCC3)c(=O)[nH]c2c1C
→ 1.01	0.279
O=C(Nc1ccc2c(c1)OCCO2)c1cc2c(s1)-c1ccccc1OC2
→ 1.09	2.43
O=C(C1CC1)N1CCc2cc(S(=O)(=O)Nc3ccc(F)c(Cl)c3)ccc21
→ 0.948	-0.59
C=CCNC(=O)c1ccc2c(c1)N(Cc1cccc(Cl)c1)C(=O)c1ccccc1S2
→ 0.732	-5.32
COc1cccc(NC(=O)c2cn(-c3ccc(C)c(C)c3)c(=O)c3ccccc23)c1
→ 0.993	-0.155
Cc1nc(Oc2ccccc2)c2oc3ccccc3c2n1
→ 0.952	-0.757
Cc1csc2ncc(C(=O)Nc3ccccc3Cl)c(=O)n12
→ 1.09	3.22
O=C(Nc1cccc(C(F)(F)F)c1)c1cccnc1N1CCOCC1
→ 0.854	-2.65
COCCNC(=O)c1ccc2c(c1)N=C(C)c1cc(Cl)ccc1S2
→ 1.06	0.62
O=c1oc2ccc(Br)cc2cc1-c1nc2ccccc2c(=O)[nH]1
→ 0.941	-1.16
COc1ccc(-c2noc(N(C)CC(=O)Nc3cccc(C(F)(F)F)c3)n2)cc1
→ 1.09	3.05
O=C(Nc1cccc(Cl)c1)NC1CCN(C2CCCCC2)C1 (centres undefined)
→ 1.34	1.49
COc1cccc(NC(=O)CCc2c(C)nc3nc(-c4cc(OC)cc(OC)c4)nn3c2C)c1
→ 0.925	-0.323
O=C(CCCN1C(=O)CSc2ncccc21)NCc1ccccc1Cl
→ 0.994	-0.016
O=C(Nc1nc(-c2ccccc2)c(CN2CCCCC2)s1)c1ccccc1
→ 0.914	-1.03
COc1ccc(C2(C(=O)N3CCOCC3)CCCC2)cc1OC
→ 1.05	1.39
COc1ccc(-c2nn(C)c3sc(C(=O)N(C)c4ccc(Cl)cc4)cc23)cc1OC
→ 0.93	-0.899
CCCCNC(=O)c1ccc(-c2nn(C)c(=O)c3ccccc23)cc1
→ 1.04	1.07
CN(C)CCNC(=O)c1ccc2c(c1)N(Cc1c(F)cccc1Cl)C(=O)CS2
→ 1.03	0.986
CCC1Oc2ccc(C)cc2N(CC(=O)N2CCN(c3ccccc3F)CC2)C1=O (centres undefined)
→ 0.92	-0.924
COc1cc2c(C(=O)Nc3ccc(F)cc3)cn(C)c(=O)c2cc1OC
→ 1.04	1.43
Cc1ccc(NC(=O)CSc2nnc(Cc3cc(=O)[nH]c(=O)[nH]3)n2-c2ccc(F)cc2)cc1
→ 0.955	-1.18
Cc1ccc2c(c1)N(CCCC(=O)NCCCN1CCCC1=O)C(=O)CO2
→ 1.63	1.29
Cc1ccc2c(c1)NC(=O)C(CC(=O)NC1CCCCC1C)O2 (centres undefined)
→ 1.03	1.16
CC(C)OCCCNC(=O)c1ccc2c(c1)ncn2C1CCCCC1
→ 0.979	-1.01
N=c1n(CCO)c2ccccc2n1Cc1ccccc1Cl
→ 1.06	1.64
CCN(CC)CCCNC(=O)c1cc(-c2ccc3c(c2)OCO3)on1
→ 1.23	2.39
CN(CCc1ccccn1)C(=O)c1cnn2c(C(F)(F)F)cc(-c3ccco3)nc12
→ 0.971	-0.448
CCN(CC)c1ccc(NS(=O)(=O)c2ccc3c(c2)CCN3C(C)=O)c(C)c1
→ 0.809	-0.773
CCOC(=O)c1cnc2cc(-c3cccc(Br)c3)nn2c1C
→ 1.15	1.78
Cc1ccc2c(c1)N(CCCC(=O)NCCN(C)C)C(=O)CO2
→ 1.62	1.26
CCOC(=O)c1c(NC(=O)c2ccc(OC)c(Cl)c2)sc2c1CCCC2
→ 1.17	3.45
O=C(Nc1nc(-c2ccccc2)c(C(=O)c2ccccc2)s1)c1ccccc1Oc1ccccc1
→ 0.897	-1.86
Cc1ccc(C)c(N2CCN(CCCNC(=O)Nc3ccccc3)CC2)c1
→ 1.05	0.0645
Cc1ccc(-c2cc(C(=O)NC(C)C)c3ccccc3n2)cc1C
→ 1.02	0.188
CC1(C)Cc2ccccc2-c2nc(NCCCO)[nH]c(=O)c21
→ 1.04	1.46
CC(=O)N1CCc2cc(Br)cc(S(=O)(=O)NCCc3ccccc3)c21
→ 1.02	0.378
COc1ccc2nc(N3CCCC(C(=O)NC4CCCCCCC4)C3)sc2c1 (centres undefined)
→ 1.24	2.64
O=C(Nc1c(C(=O)Nc2ccc(F)cc2)oc2ccccc12)c1cccs1
→ 1.25	9.1

# (continued)
# Values run as follows: CBX7 inh	CBX7 inh z-score
CCOc1ccc(NC(=O)CC2C(=O)N(c3ccc(C)cc3)C(=O)N2Cc2ccc(OC)cc2)cc1 (centres undefined)
→ 1.07	0.678
O=C(NCCc1ccc(Cl)cc1)C1CCN(S(=O)(=O)c2cccc3nonc23)CC1
→ 0.985	-0.0202
CCc1ccc(-c2nc(CSCC(=O)O)c(C)o2)cc1
→ 0.976	-1.05
Cc1c(C(=O)Nc2ccc(C(F)(F)F)cc2)sc2ncn(Cc3ccccc3F)c(=O)c12
→ 1.09	0.605
COc1ccc2cc(CCNC(=O)c3ccc(C(F)(F)F)cc3)c(=O)[nH]c2c1
→ 0.939	-2.06
COc1ccccc1-c1cc(C(=O)Nc2c(Cl)cccc2Cl)no1
→ 1	0.0379
CC(C)CCNC(=O)C1CC(=O)N(C2CCCC2)C1 (centres undefined)
→ 1.05	0.703
CCn1c(C(=O)NC2CC2)cc2sc(Cl)cc21
→ 1.03	1.08
Cc1nc(NCCOCc2ccccc2)sc1C(=O)Nc1ccccc1
→ 0.826	-1.24
COc1cccc(NC(=O)c2oc3ccc(S(=O)(=O)N4CC(C)CC(C)C4)cc3c2C)c1 (centres undefined)
→ 0.968	-1.24
Cc1ccc(-c2nc(CSCC(=O)NCCN3CCN(c4cccc(Cl)c4)CC3)c(C)o2)cc1
→ 0.736	-4.96
CCOC(=O)c1c(C)n(C)c2ccc(OCC(O)Cn3nnc4ccccc43)cc12 (centres undefined)
→ 1.02	1.02
CCOC(=O)C1CCCN(C(=O)c2ccc3c(c2)NC(=O)C(N2CCOCC2)S3)C1 (centres undefined)
→ 1.07	2.23
CCC1CCCCN1C(=O)c1sc2ncnc(N3CCN(c4ccccn4)CC3)c2c1C (centres undefined)
→ 0.837	-0.283
Cc1cc(C)c(C(N)=O)c(Nc2ccc(Oc3ccccc3)cc2)n1
→ 0.817	-2.35
c1cncc(-c2nc3ccccc3[nH]2)c1
→ 1.22	1.61
CCN(CCCNC(=O)C1CCC(=O)N1C1CCCC1)c1cccc(C)c1 (centres undefined)
→ 0.967	-1.71
O=C(O)CSCc1cnn(-c2ccccc2)c1-n1cccc1
→ 0.964	-0.868
COc1ccc(C2C3=C(CCCC3=O)Nc3ccccc3N2C(C)=O)cc1 (centres undefined)
→ 1.1	1.06
Cc1ccccc1Cc1c(C)nc2nc(SCC(=O)NCCC3=CCCCC3)nn2c1C
→ 1.24	2.31

# 2 of the compounds above, field by field.
Compound: c1cncc(-c2nc3ccccc3[nH]2)c1
  CBX7 inh: 1.22
  CBX7 inh z-score: 1.61

Compound: Cc1ccc(-c2nc(CSCC(=O)NCCN3CCN(c4cccc(Cl)c4)CC3)c(C)o2)cc1
  CBX7 inh: 0.736
  CBX7 inh z-score: -4.96

# Record cards, from the list above. Order of values: CBX7 inh	CBX7 inh z-score
# Cc1ccc(-c2nc(CSCC(=O)NCCN3CCN(c4cccc(Cl)c4)CC3)c(C)o2)cc1 across the screens: 0.736	-4.96
# COc1ccc(C2C3=C(CCCC3=O)Nc3ccccc3N2C(C)=O)cc1 (centres undefined) across the screens: 1.1	1.06
# Cc1ccccc1Cc1c(C)nc2nc(SCC(=O)NCCC3=CCCCC3)nn2c1C across the screens: 1.24	2.31

# (continued)
# Values run as follows: CBX7 inh	CBX7 inh z-score
O=C(CSc1nnnn1C1CCCCC1)NCc1ccc(C(=O)O)cc1
→ 1.05	0.533
CCn1c(C(=O)NC2CCCCC2C)cc2sc(Cl)cc21 (centres undefined)
→ 1.06	2.41
CCOc1ccc(CNC(=O)C2CCCN(S(C)(=O)=O)C2)cc1OC (centres undefined)
→ 1.07	1.14
Cc1cc(OCC(=O)NCCc2nc3ccccc3[nH]2)ccc1Cl
→ 0.989	-0.265
Cc1ccc(C)c(NC(=O)C2CCCN(C(=O)c3cnn(-c4ccccc4)c3-n3cccc3)C2)c1 (centres undefined)
→ 0.963	-1.83
COc1ccc(OC)c(CCNC(=O)C2CCN(c3nc4ccccc4[nH]3)CC2)c1
→ 0.792	-2.4
COc1cccc(NC(=O)CN(c2ccc(C)cc2)S(=O)(=O)c2c(C)nn(C)c2C)c1
→ 1.05	0.382
COc1ccc(C(=O)c2oc3ccccc3c2NC(=O)c2ccc(Cl)cc2)cc1
→ 0.991	-0.173
CCOC(=O)c1cnc2ccc(OC)cc2c1Nc1ccc(C)cc1C
→ 0.575	-1.87
COCCCNC(=O)c1ccc2c(c1)N(Cc1ccc(Cl)cc1)C(=O)c1ccccc1S2=O (centres undefined)
→ 1.05	2.2
O=C1CC(N2CCN(c3ncccn3)CC2)C(=O)N1c1cccc(Br)c1 (centres undefined)
→ 1.02	0.223
CCC(CC)C(=O)Nc1c(-c2ccccc2)nc2cc(C)ccn12
→ 0.997	-0.092
CCc1ccccc1NC(=O)c1cc(-c2ccc(O)cc2)on1
→ 0.94	-2
CC1=Nc2cc(C(=O)NCCc3ccc(Cl)cc3)ccc2Sc2ccc(Cl)cc21
→ 0.882	-1.9
O=S(=O)(c1ccccc1)c1nc(Cc2ccccc2)oc1N1CCOCC1
→ 0.981	-0.674
CCOc1cc(/C=c2\sc3nc4cc(C)c(C)cc4n3c2=O)ccc1OCc1ccc(F)cc1
→ 0.903	-1.81
Cc1ccc(S(=O)(=O)CCc2nnc(NC(=O)C3CCCCC3)s2)cc1
→ 1.02	0.919
COc1ccc(C(=O)NC(C)C(c2cccs2)N2CCN(c3ccccc3)CC2)cc1OC (centres undefined)
→ 0.677	-3.42
CCN(CC)S(=O)(=O)c1ccc(NC(=O)c2cc(-c3cccs3)nc3ccccc23)cc1
→ 1.22	1.86
O=C(O)CN1C(=O)c2cccnc2Sc2ccccc21
→ 1.01	0.273
Cc1ccc(-c2csc3ncn(CC(=O)N(C)Cc4ccccc4)c(=O)c23)cc1
→ 0.946	-0.694
CN(C(=O)C1CC(c2ccc(F)cc2)=NO1)C1CCCCC1 (centres undefined)
→ 0.993	-0.291
CCc1ccc(-c2nc(SCC(=O)NCCOC)c(-c3ccc(Cl)cc3)[nH]2)cc1
→ 1.05	0.824
C=CCn1c(C(C)NC(=O)c2ccccc2)nc2ccccc21 (centres undefined)
→ 1.06	0.891
Cc1cccc(Nc2nc3nonc3nc2N2CCC(C)CC2)c1
→ 0.875	-4.83
O=C(NCc1ccncc1)c1ccc(C#CC2(O)CCCCC2)cc1
→ 1.05	1.46
CCN(CC)CCCNC(=O)c1ccc2c(c1)N(Cc1ccc(F)cc1)C(=O)c1ccccc1S2=O (centres undefined)
→ 0.747	-7.01
CCOc1ccc2nc(NC(=O)c3cccc(Oc4ccccc4)c3)sc2c1
→ 1.02	0.955
O=C1CCc2cc(S(=O)(=O)NCCC(=O)N3CCC(Cc4ccccc4)CC3)ccc2N1
→ 1	-0.0201
Cc1cc(C)cc(N(CC(=O)Nc2cccc(Cl)c2)S(=O)(=O)c2c(C)noc2C)c1
→ 0.945	-0.221
COc1ccccc1NC(=O)Cn1cc(S(=O)(=O)c2ccc(C)cc2)c(=O)c2cc(F)ccc21
→ 0.809	-3.13
COc1cccc(C2C(=O)N(C3CCCCC3)CC(=O)N2Cc2ccc(Cl)cc2)c1 (centres undefined)
→ 1.02	0.312
Cc1cc(=O)n2nc(N3CCC(C(=O)Nc4cccc(F)c4)CC3)sc2n1
→ 0.969	-1.53
CC(CCc1ccccc1)NC(=O)Cc1c(C(=O)O)[nH]c2ccccc12 (centres undefined)
→ 1	0.00177
COC(=O)c1c(NC(=O)c2ccc(S(=O)(=O)N3CCCCCC3)cc2)sc2c1CCN(C)C2
→ 1.07	3.54
Cc1ccc(CNC(=O)Cn2nc(-c3ccccc3)c3cc(Cl)ccc32)cc1
→ 1.24	2.67
COc1ccc(OC)c(CCNC(=O)Cn2cc3c(n2)CCCC3)c1
→ 1.04	1.32
COc1ccc(N2C(=O)CC(N(C)CCc3ccc(OC)c(OC)c3)C2=O)cc1 (centres undefined)
→ 1.04	0.317
COc1ccc2c(c1)-c1nc(NC(=O)c3ccc(Br)cc3)sc1CC2
→ 0.99	-0.152

# By substructure, the compounds so far containing an aryl thioether with sulfur outside any ring
# Values run as follows: CBX7 inh	CBX7 inh z-score
Cc1ccc(NC(=O)CSc2nnc(Cc3cc(=O)[nH]c(=O)[nH]3)n2-c2ccc(F)cc2)cc1
→ 0.955	-1.18
Cc1ccccc1Cc1c(C)nc2nc(SCC(=O)NCCC3=CCCCC3)nn2c1C
→ 1.24	2.31
O=C(CSc1nnnn1C1CCCCC1)NCc1ccc(C(=O)O)cc1
→ 1.05	0.533
CCc1ccc(-c2nc(SCC(=O)NCCOC)c(-c3ccc(Cl)cc3)[nH]2)cc1
→ 1.05	0.824

# An excerpt. The share of hits here may be higher or lower than overall.
